RGS16-Gao HTS: modulators of RGS16 binding to Galphao, primary screen, biochemical, human proteins, multiplexed bead flow cytometry; binding response (% of control), % at 10 µM; bead-based flow cytometry RGS16-Galphao binding, fluorescence; actives lie on both sides; Regulator of G-protein signaling 16 (Homo sapiens) + Guanine nucleotide-binding protein …; actives 0.38% (n = 220,000);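 active means below 25% or above 175%, edge rows of some plates excepted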;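 further: Galphao activated by GDP with aluminum fluoride before binding; 100% = wells without compound and 0% = beads without RGS; some results beyond the cut were filed as inactive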
Insulin prom inh: inhibitors of insulin promoter-driven GFP, primary screen, imaging, TRM-6 cells (human fetal islet line), eGFP reporter, cell count | inhibition, % at 2 µM | actives 0.9% (n = 130,000) | reporter expression induced with tamoxifen | AID 1273, 2008;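 active means inhibition above the mean plus 3 SD, with well images judged a real hit on visual review, cut at about 60% in these data, passing the limit was not always enough; inconclusive means inhibition over the cutoff but images rejected on review; inactive means inhibition not above the cutoff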
HSV replic up: enhancers of HSV replication in host cells, fold increase, host cell viability. HSV replication augmentation in cells. maximum fold increase. actives 0.005% (n = 220,000). AID 1956, 2009;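 active means peak rise of 1.5-fold or more in the series; inconclusive means self-fluorescent or not available for retest; tested in PC3 cells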;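 further: first round at 10 µM; read as green reporter fluorescence; hits show the peak of a series up to 25 µM; 1 = signal of infected wells without compound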
GALR2 agonist: GALR2 receptor agonists, primary screen, cell-based; actives 0.48% (n = 140,000); AID 803, 2007; activation, %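 (tested at 5 µM)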; GALR2-expressing cells, agonist activation read-out;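 active means above mean plus 3 SD of all compounds, about 5% in these data, not always enough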;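 further: 0% = vehicle buffer wells and 100% = reference agonist at full effect; tested in CHO reporter cells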
PKD1 inh: inhibitors of human PKD1 kinase, biochemical, fluorescence polarization | actives 0.056% (n = 200,000) | Serine/threonine-protein kinase D1 (Homo sapiens), Q15139 | PKD1 kinase fluorescence polarization assay | inhibition, %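 (about 10 µM by stock and volumes)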;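 active means inhibition of 50% or more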;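 further: controls were vehicle for no effect and a reference inhibitor for full effect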
Target sequence (Q15139 whole entry, looked up): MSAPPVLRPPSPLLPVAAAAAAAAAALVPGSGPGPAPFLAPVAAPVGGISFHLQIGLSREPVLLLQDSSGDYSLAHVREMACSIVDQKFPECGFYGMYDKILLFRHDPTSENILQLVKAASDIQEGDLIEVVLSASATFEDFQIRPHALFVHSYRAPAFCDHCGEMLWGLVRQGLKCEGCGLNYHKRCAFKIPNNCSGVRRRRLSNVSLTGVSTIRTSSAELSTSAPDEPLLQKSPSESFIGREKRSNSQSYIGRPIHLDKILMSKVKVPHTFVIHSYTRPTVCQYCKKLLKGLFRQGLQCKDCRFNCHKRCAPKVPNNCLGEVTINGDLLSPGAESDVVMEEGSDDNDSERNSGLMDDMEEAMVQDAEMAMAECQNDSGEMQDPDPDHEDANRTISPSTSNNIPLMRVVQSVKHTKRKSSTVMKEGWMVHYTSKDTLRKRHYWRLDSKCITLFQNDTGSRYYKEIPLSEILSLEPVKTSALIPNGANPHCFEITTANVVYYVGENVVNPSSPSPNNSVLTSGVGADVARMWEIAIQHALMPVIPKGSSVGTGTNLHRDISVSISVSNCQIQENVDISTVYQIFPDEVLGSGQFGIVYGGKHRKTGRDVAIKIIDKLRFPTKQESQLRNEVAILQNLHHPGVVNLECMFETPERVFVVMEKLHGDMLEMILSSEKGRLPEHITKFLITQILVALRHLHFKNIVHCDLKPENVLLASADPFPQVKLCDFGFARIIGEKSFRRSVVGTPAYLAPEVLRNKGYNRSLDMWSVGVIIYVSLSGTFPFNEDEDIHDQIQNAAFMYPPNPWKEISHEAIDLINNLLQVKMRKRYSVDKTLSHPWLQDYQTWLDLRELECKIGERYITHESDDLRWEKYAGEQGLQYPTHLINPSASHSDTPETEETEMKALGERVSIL
Insulin prom inh cell count: recorded beside Insulin prom inh, whose call it bears; normalized cell count, %; measured here: cell count, toxicity; reference of the scale not given here;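 cells exposed to compound for 48 h; stained nuclei by imaging scaled within each plate; lower means fewer cells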
HSV replic up primary fold: further read-out of HSV replic up, marked with its call; fold increase; compound at 10 µM; measured here: primary screen fold increase 10 uM; tested in PC3 cells;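 GFP signal in the first replicate; 1 = infected wells without compound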
Active calls of the source: *; i = inactive; ? = inconclusive; · = no result given; & = joins results of further samples.

SMILES	RGS16-Gao HTS	Insulin prom inh	Insulin prom inh cell count	HSV replic up	HSV replic up primary fold	GALR2 agonist	PKD1 inh
C=CCn1c(SCC(=O)N2CCc3ccccc3C2)nc2ccccc2c1=O	98	10	108	i	0.94	1.1	12
COc1cc(/C=N/NC(=O)CCC(=O)Nc2ccc(C)cc2)ccc1O	100	·	·	i	1	·	-4
Cc1cccc2c(CC(=O)Nc3ccccc3)noc12	106	46	159	i	1	-0.1	-15
CCCOc1ccc(-c2nnc(-c3cccs3)o2)cc1	88	-100	110	i	1	-1.2	-8
O=C(NCCCN1CCCC1=O)c1cc(=O)c2ccccc2o1	88	·	·	i	0.98	-0.1	2
COc1ccc(C(=O)N2CCc3cc(OC)c(OC)cc3C2)cc1OC	104	·	·	i	0.99	0.3	18
Cc1cc2c(N)cccc2nn1	61	9	84	i	0.88	-1.3	-3
COc1ccc(CC(=O)Nc2ccc(S(=O)(=O)Nc3nccc(C)n3)cc2)cc1	98	-31	139	i	0.94	-0.7	4
CC1(C)Cc2c(sc3ncn4nc(CCC(=O)O)c(=O)nc4c23)CO1	101	-9	171	i	1.2	-1.0	-6
COC(=O)c1c(N)c(C#N)c2n1CCCCC2	105	-29	52	i	1.3	-1.2	-6
COc1cccc(/C=N/NC(=O)CCCC(=O)Nc2ccc(Br)cc2)c1	104	-74	86	i	0.99	-1.9	1
CCOc1ccccc1C(=O)Nc1nn[nH]n1	103	·	·	i	1	·	-4
C/C(=C\C(=O)c1ccc(C)cc1)Nc1cccc(O)c1	129	-24	220	·	·	-1.4	-7
CCCCCc1nc2ccccc2c(=O)n1N	103	·	·	i	1.1	-1.8	-3
CCOC(=O)CN(C(=O)COc1nc(-c2ccccc2)cc(C)c1C#N)c1ccccc1C	107	·	·	i	0.74	·	·
O=C(COC(=O)CCc1nc2ccccc2n1-c1ccccc1)Nc1ccc(N2CCCCC2)cc1	97	·	·	i	1.1	-0.9	-1
Cc1cc(-c2nc(C)c(C(=O)NNC(=O)NC(C)C)s2)no1	102	·	·	i	1.1	·	·
CCCS(=O)(=O)N1CCCC(C(=O)N2CCN(c3ccccn3)CC2)C1 (stereo not drawn)	96	·	·	i	1	0.0	-4
CCc1cc(-c2n[nH]c(C)c2Oc2ccc(C(C)C)cc2)c(O)cc1O	103	14	121	i	0.87	0.2	-1
COc1ccc(-c2cc(C(=O)Nc3cccc(C(C)=O)c3)no2)cc1	93	0	135	i	0.79	-2.5	-3
Cc1ccc(C(=O)N/C(=C/c2cccs2)C(=O)N2CCCCC2)cc1	104	0	111	i	0.9	·	0
Cc1c(C(=O)O)c(C(=O)O)c2n1CCS2	106	·	·	i	1.2	·	·
Cc1ccc(C(=O)CCNc2ccc(Cl)cc2)o1	102	38	98	i	1	-1.5	-3
O=C(Nc1ccc2c(c1)OCCO2)c1c(F)c(F)c(F)c(F)c1F	90	54	108	i	0.99	-2.2	-6
c1ccn(-c2ccc(-c3ccn[nH]3)cc2)c1	97	25	68	i	0.95	·	-7

The final 5 records of the part above lead into the next:
SMILES	RGS16-Gao HTS	Insulin prom inh	Insulin prom inh cell count	HSV replic up	HSV replic up primary fold	GALR2 agonist	PKD1 inh
Cc1ccc(C(=O)N/C(=C/c2cccs2)C(=O)N2CCCCC2)cc1	104	0	111	i	0.9	·	0
Cc1c(C(=O)O)c(C(=O)O)c2n1CCS2	106	·	·	i	1.2	·	·
Cc1ccc(C(=O)CCNc2ccc(Cl)cc2)o1	102	38	98	i	1	-1.5	-3
O=C(Nc1ccc2c(c1)OCCO2)c1c(F)c(F)c(F)c(F)c1F	90	54	108	i	0.99	-2.2	-6
c1ccn(-c2ccc(-c3ccn[nH]3)cc2)c1	97	25	68	i	0.95	·	-7
Cc1c(NC(=O)Cn2nc(C(=O)O)c3ccccc3c2=O)c(=O)n(-c2ccccc2)n1C	100	0	118	i	1	-2.4	-1
COc1ccc(OCC(=O)OCC(=O)N2CC(=O)Nc3ccccc32)cc1	104	·	·	i	0.92	·	·
CS(=O)(=O)Nc1ccc(OCc2ccccc2)cc1	98	-27	103	i	1.1	-1.1	-7
C/C(=N\NC(=O)OC(C)(C)C)c1ccc[nH]1	92	·	·	i	1.1	·	5
Oc1c(C=NCc2ccccc2)sc2ccccc12	95	14	91	i	1	·	-7
Cc1cc(C)cc(N(C(C)C(=O)Nc2c(C)n(C)n(-c3ccccc3)c2=O)S(C)(=O)=O)c1 (stereo not drawn)	109	66	156	i	1	-0.3	1
O=C(Cc1nc(-c2ccc([N+](=O)[O-])cc2)cs1)Nc1ccccc1	94	-193	114	i	0.94	-2.6	7
CCC(=O)Nc1nnc(SCc2ccccc2F)s1	102	-31	92	·	·	·	3
Cc1cc(C(=O)N2CCN(S(=O)(=O)c3ccccc3F)CC2)c(C)o1	88	39	143	i	0.95	·	-7
O=C(NCC(F)(F)F)N1CCOCC1	103	-30	100	i	1	-1.0	2
CC1=CC(C)[C@H](/C=N/n2c(=O)[nH]c3c([nH]c4ccc(C)cc43)c2=O)C(C)C1 (stereo partly drawn)	95	-30	45	i	1	·	6
CCOC(=O)c1cc(-c2ccc(OC)cc2)nc2c1c(C)nn2CCC#N	101	-350	60	i	0.79	0.0	4
COc1ccc(/C(O)=C2\C(=O)C(=O)N(c3cc(C)on3)C2c2ccccc2OC)cc1C (stereo not drawn)	101	41	112	i	0.72	-0.5	7
COc1cc(OC)cc(C(=O)N[C@H](C(=O)OCC(=O)c2ccc(F)cc2)C(C)C)c1	106	-22	116	i	0.94	·	0
COc1cccc(C(=O)OC(C)CN2CCCC2)c1 (stereo not drawn)	102	·	·	·	·	-2.4	3
CC(C)c1nnc(NC(=O)CCC(=O)NCC2CCCO2)s1 (stereo not drawn)	99	·	·	i	0.96	-0.4	-7
COc1ccc(Cc2c(N)nc(N)nc2N)cc1	97	43	87	i	1	0.1	0
CCOC(=O)c1c(-c2ccc(OC)c(OC)c2)csc1NC(=O)C1CCCO1 (stereo not drawn)	98	·	·	i	0.91	·	4
CCOC(=O)c1c(C)oc2ccc(NS(=O)(=O)c3ccc(C(=O)O)cc3)cc12	106	·	·	i	1.1	·	3
CC(Oc1ccccc1)C(=O)Nc1cccc([N+](=O)[O-])c1 (stereo not drawn)	97	52	109	i	1	·	-7
CN(c1ccc(C(=O)NCCc2ccccc2)cc1)S(C)(=O)=O	95	61	59	i	1.2	-0.4	-5
O=C(c1ccccc1)c1cnc(-c2ccc(Cl)cc2)s1	100	5	91	i	0.86	-0.9	-5
COC(=O)N[C@H](CC(C)=O)c1cccc(C(F)(F)F)c1	103	0	123	i	1.2	-1.0	-11
CC(c1nnc(SCn2nnc3ccccc3c2=O)n1-c1ccc(Cl)cc1)N(C)C (stereo not drawn)	92	-6	105	i	0.79	-0.5	7
O=C(Nc1ccon1)c1cccc(Cl)c1	108	-14	76	i	1.3	0.6	-6

Ordered by value in PKD1 inh (rising): three of the compounds above.
Compound	RGS16-Gao HTS	HSV replic up primary fold	GALR2 agonist	PKD1 inh
COC(=O)N[C@H](CC(C)=O)c1cccc(C(F)(F)F)c1	103	1.2	-1.0	-11
CCCCCc1nc2ccccc2c(=O)n1N	103	1.1	-1.8	-3
COc1ccc(/C(O)=C2\C(=O)C(=O)N(c3cc(C)on3)C2c2ccccc2OC)cc1C (stereo not drawn)	101	0.72	-0.5	7

(continued)
SMILES	RGS16-Gao HTS	Insulin prom inh	Insulin prom inh cell count	HSV replic up	HSV replic up primary fold	GALR2 agonist	PKD1 inh
Cc1sc(NC(=O)CSc2nnnn2C2CCCC2)c(C#N)c1C	104	·	·	i	0.8	0.4	-2
O=C(NC1CCCCC1)NC1CC2CCC(C1)N2Cc1nnnn1Cc1ccc2c(c1)OCO2 (stereo not drawn)	104	31	88	·	·	-1.1	-12
COc1cccc(OCc2nnc(SCc3cc(=O)[nH]c4ccccc34)o2)c1	116	·	·	i	0.86	·	0
CC(C)(C)NC(=O)NC(=O)COC(=O)c1nc(-c2ccccc2)n(-c2cccc(C(F)(F)F)c2)n1	114	40	187	i	1	-1.6	1
CSC1=C(C#N)C(CC(C)C)C(C(C)=O)=C(C)N1 (stereo not drawn)	98	·	·	i	1.1	-1.4	-2
Cc1cccc(N2CCN(C(=O)COc3ccc4c(c3)CCC4)CC2)c1C	118	·	·	i	0.92	1.0	-12
Cc1nnc(-c2ccc(N3CCCCCC3)c([N+](=O)[O-])c2)o1	101	·	·	i	1.1	·	·
COc1cccc(-n2c(=S)sc3c(=O)n(-c4ccccc4OC)c(SCC4OCCO4)nc32)c1	98	25	138	i	1	·	-3
O=C(CC1C(=O)NCCN1C/C=C/c1ccccc1)NCCCC1CCCC1 (stereo not drawn)	103	·	·	i	1	·	-3
CCCn1c(SC(C)C(=O)O)nc2ccccc21 (stereo not drawn)	99	67	56	i	0.92	-1.5	-4
CCOc1ccc(N2C(=O)C3ON(c4ccccc4)C(c4ccco4)C3C2=O)cc1 (stereo not drawn)	101	·	·	i	0.96	·	-1
CCC1CO/C(=C(\C(=C(Cl)Cl)N2CCOCC2)[N+](=O)[O-])N1 (stereo not drawn)	110	·	·	i	0.99	·	-1
COc1ccccc1NC(=O)COC(=O)C12CC3CC(CC(Cl)(C3)C1)C2	102	-11	85	i	1.1	·	0
CCOc1ccccc1NC(=O)CN(c1ccc(OC)cc1OC)S(=O)(=O)c1ccccc1[N+](=O)[O-]	103	-15	189	i	0.96	·	4
Cc1cc(C)n(C(=O)COc2ccc([N+](=O)[O-])cc2)n1	108	-2	107	i	1.1	0.5	0
CCOC(=O)/C(=C/c1ccccc1)NC(=O)c1ccco1	96	-43	108	i	1.2	0.8	-2
COc1cc(C2NC(=O)NC(C)=C2C(=O)OCc2ccccc2)ccc1O (stereo not drawn)	156	·	·	i	1	·	·
CN(C)/C=N/c1ncc(C(=O)c2ccc(-c3ccccc3)cc2)s1	103	0	119	i	0.94	·	-1
O=C(CSCc1ccc([N+](=O)[O-])cc1)NC1CC2CCC1C2 (stereo not drawn)	100	·	·	i	1.1	0.4	-1
CCOc1cc(C(=O)Nc2c3c(nn2C(C)(C)C)CS(=O)C3)cc(OCC)c1OCC (stereo not drawn)	101	-19	75	i	1.1	-1.1	-14
Cc1ccc(-n2c3nc(=O)[nH]c(=O)c-3cc3cc([N+](=O)[O-])ccc32)cc1	109	63	113	i	0.92	0.9	8
O=C(O)CSc1cccc2cccnc12	178&71	17	127	i	0.89&1	1.3&-1.9	-2&3
CC(C)(C)OC(=O)NCCc1nnc(S(=O)(=O)Cc2ccc(Cl)cc2Cl)o1	100	23	155	i	0.67	-0.5	-2
CCOC(=O)c1ccc[n+](CC(=O)Nc2cc(C(F)(F)F)ccc2Cl)c1	100	·	·	i	0.95	·	5
N#C/C(=C/c1ccc(-c2ccccc2)o1)c1nc(-c2cccs2)cs1	119	-456	118	?	·	-4.5	-1
CC(=O)c1c(N2CCCC2)nc(=S)n(-c2ccccc2)c1C	103	-32	123	i	1	-1.5	-8
COCCn1c(COc2ccccc2)nnc1SCC(N)=O	·	·	·	·	·	-2.9	-3
COc1cc2c(c(OC)c1)C(c1ccncc1)CC(=O)N2 (stereo not drawn)	92	-86	99	i	0.93	-0.8	-12
COc1cccc(C(=O)Nc2c(F)c(F)c(F)c(F)c2F)c1	105	-215	66	i	0.82	-2.0	-9
CC1CC1C(=O)Nc1ccc(-c2ccccc2)cc1 (stereo not drawn)	100	-24	187	i	0.86	0.7	-8
N#Cc1c(-c2ccccc2)nc(-c2ccncc2)[nH]c1=O	101	·	·	i	1	·	-4
Cc1c(C=O)c2ccccc2n1CC(=O)NCc1ccc2c(c1)OCO2	99	0	103	i	0.92	·	0
CCOC(=O)c1cc(C(=O)OCC)c2cc(Br)ccc2n1	102	39	83	i	0.85	-2.2	0
Cc1ccc(C(=O)N/N=C\c2c(C)nn(-c3ccccc3)c2Cl)cn1	115	·	·	i	0.86	-1.2	-2

Assay outcomes: PubChem BioAssay, several laboratories
